# Screens deposited in PubChem BioAssay by ICCB-Longwood Screening Facility, Harvard Medical School.
# Sa helicase inh: blocks Staphylococcus aureus DNA helicase. purified S. aureus helicase, fluorescence unwinding assay; about half of the hits fall short of the stated cut. 0.05% of 120,000 active. inhibition, %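 (tested at about 80 µM)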;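 active = both duplicates at 50% or more, or one of them with a favoured structure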;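 also: 0% = mean of negative control wells and 100% = mean of positive control wells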
# MgrA DNA FP: alters Staphylococcus aureus MgrA binding to DNA; AID 602314; fluorescence polarization; inhibition, %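 (about 10 µg/mL by stock and volumes)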; 0.13% of 84,000 active;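 active = above 50% in either of two replicates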;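 also: 0% = protein plus DNA without compound and 100% = DNA alone without protein; higher means less MgrA bound to DNA so lower polarization; one replicate is shown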
# * hit, by the source's call; / = no result given.
Sa helicase inh	MgrA DNA FP	SMILES
0	/	O=C(CC1SC(N2CCCCC2)=NC1=O)Nc1cccc(Cl)c1Cl (stereo unspecified)
31	/	COc1cc(C2CC(=O)NC(SCC(=O)Nc3ccc(C)c(C)c3)=C2C#N)cc(OC)c1OC (stereo unspecified)
6	/	O=C(NC1CCCCC1)c1ccc(-n2ccc3ccccc32)s1
/	-5.3	O=C(O)/C=C/C(=O)N1CCN(c2ncc(C(F)(F)F)cc2Cl)CC1
-15	0.3	O=C(Nc1ccc(F)cc1)c1ccccc1NS(=O)(=O)N1CCCC1
12	/	O=C(Nc1nnc(C(F)(F)F)s1)C(Cc1ccccc1)N1C(=O)C2C3C=CC(C3)C2C1=O (stereo unspecified)
0	/	CCn1c(Sc2nc(C)nc3scc(-c4cccs4)c23)n[nH]c1=O
6	-0.5	CSc1cccc(NC(=O)C2(S(=O)(=O)c3ccc(C)cc3)CC2)c1
7	2.0	COc1cc(C(=O)NN2CCN(C)CC2)cc(OC)c1OC
14	-1.8	CC1CCN(C(=O)c2ccccc2NC(=O)C(C)(C)C)CC1
11	9.3	c1ccc(Cn2c3c(c4ccccc42)CCc2nonc2-3)cc1
/	1.1	CCCCCCCCCCCCC/C=C/[C@@H](O)[C@H](CO)NC(=O)CCCCCCC
27	/	O=[n+]1c2c(n([O-])c3cc(Br)ccc31)CCCC2
-5	/	Cc1cc(C)c(C#N)c(SCCC#N)n1
-5	-0.8	CCOC(=O)Nc1sc2c(c1C#N)CCCC2
8	/	CC(C)(Oc1ccc(Cl)cc1)C(=O)NN
0	/	C=CCn1nnnc1SCC(=O)Nc1ccc(OC)cc1
5	0.4	Cc1ccc(Nc2nc(-c3c(C)nc4ccccn34)cs2)c(C)c1
-13	/	CCN1CCN(C(c2ccc(OC)cc2)C(O)C(=O)c2c[nH]c3ccccc23)CC1 (stereo unspecified)
7	/	O=C(O)CSCc1cccs1
6	1.1	O=C1NC(c2ccc(C(F)(F)F)cc2)=CCN1c1ccccc1O
11	/	Cc1ccc(-c2noc(CNC(=O)CSc3ccccc3)n2)cc1
-17	/	O=C1NC2(CCCC2)C(=O)N1Cc1cc(=O)n2ccsc2n1
/	3.1	COc1cc(/C=C2\SC(=Nc3cc(C)cc(C)c3)NC2=O)cc([N+](=O)[O-])c1O
-20	/	C=CCn1c(SCC(=O)Nc2ccc(OC)cc2)nc2cc3ccccc3cc2c1=O
15	-1.4	CCCCSc1nc(O)c(CCC(C)C)c(=O)[nH]1
-2	/	CN(C)C=Nc1ccc(OCc2ccccc2)cc1
9	0.1	Fc1cnc(N2CCOCC2)nc1N1CCc2ccccc21
18	27	CCOc1cc(C=C2C(=O)NC(=S)NC2=O)ccc1OCCOc1ccc(C(C)CC)cc1 (stereo unspecified)
-2	0.9	CC1=C(C(=O)Nc2ccccc2)Oc2ccccc2N1
17	/	Cn1cnnc1Sc1ccc(Cl)cc1NC(=O)C1CCCCC1
4	0.8	Cc1ccc(CNC(=O)C2c3ccccc3Oc3ccccc32)cc1
8	/	CCC(C)(NC(=O)c1ccccn1)C(=O)NC1CCCC1 (stereo unspecified)
6	-3.2	CCOC(=O)c1[nH]c(C)c(Cc2ccc(OCC)cc2)c1C
5	/	CC1Cc2cc(C(=O)CSc3nnc(-c4ccco4)n3-c3ccccc3)ccc2N1S(C)(=O)=O (stereo unspecified)
1	0.0	Cc1cc(NC(=O)CCN2C(=O)C3C4C=CC(C4)C3C2=O)c(C)cc1Br (stereo unspecified)
9	-0.2	OC(CN1c2ccccc2Sc2ccccc21)Cn1nnc2ccccc21 (stereo unspecified)
-7	/	CC(=O)N1CCN(S(=O)(=O)c2cccc(C(=O)OCc3csc(-c4ccccc4)n3)c2)CC1
/	-2.5	COc1ccc(NC(=O)CC(C)=O)cc1
6	-2.5	CCc1ccc(CNC(=O)c2ccc3c(c2)ncn3C2CCCC2)cc1
10	1.2	Cc1ccc(S(=O)(=O)/N=C(/c2ccccc2)N2CCOCC2)cc1
-10	3.5	CCC(=O)Nc1sc(C(=O)N2CCCCC2)c(C)c1C#N
/	-0.6	COCCCNC(=S)Nc1ccc(F)cc1
/	-0.8	CSc1nc(N)nc(C2COc3ccccc3O2)n1 (stereo unspecified)
-4	/	CCNc1nc(-c2ccc(OC)cc2OC)cs1
22	-2.5	COc1ccccc1C1(C#N)CCOCC1
/	-0.1	Cc1[nH]ncc1-c1nsc(Nc2ccccc2)n1
35	/	COc1ccc(S(=O)(=O)N(C(=O)C(C)C)c2ccc3oc(=O)sc3c2)cc1
9	-2.1	COc1ccc(-n2nnc3c(=O)n(Cc4cccc(C(F)(F)F)c4)cnc32)cc1
14	0.1	Cc1nc(N=C(N)N)nc2cc3c(cc12)OCO3
2	2.1	CCNC(=O)C1CCCN1C(=O)OCC(C)C (stereo unspecified)
6	/	COc1ccc(N2CCN(S(=O)(=O)c3cc(Br)cc4c3N(C(C)=O)C(C)C4)CC2)cc1 (stereo unspecified)
5	-1.9	COc1ccc(-n2ncc3c(=O)n(CC(=O)NC(C)C)cnc32)cc1
5	/	Cc1ccc(S(=O)(=O)NCc2ccc(C(=O)NCCCN3CCN(C)CC3)cc2)cc1
-2	/	CCCCN(C)S(=O)(=O)c1cc2c3c(c1)CCC(=O)N3CCC2
2	/	N#CC(Cc1ccccc1)Sc1nnc(-c2cccs2)n1Cc1ccccc1 (stereo unspecified)
-6	-5.7	CC1CCCN(CC(=O)O)C1 (stereo unspecified)
0	0.9	CC1CC(C)CN(C(=O)Cc2c(C(=O)O)[nH]c3ccc(Cl)cc23)C1 (stereo unspecified)
8	-0.6	CCc1c(C#N)c(SCC(=O)c2ccc3c(c2)OCO3)nc2c1C(=O)CC(C)(C)C2
/	-0.4	O=C(Nc1cc(-c2ccccc2)[nH]n1)c1ccccc1

# Among those listed so far, 7 contain a cyano group.
Sa helicase inh	MgrA DNA FP	SMILES
31	/	COc1cc(C2CC(=O)NC(SCC(=O)Nc3ccc(C)c(C)c3)=C2C#N)cc(OC)c1OC (stereo unspecified)
-5	/	Cc1cc(C)c(C#N)c(SCCC#N)n1
-5	-0.8	CCOC(=O)Nc1sc2c(c1C#N)CCCC2
-10	3.5	CCC(=O)Nc1sc(C(=O)N2CCCCC2)c(C)c1C#N
22	-2.5	COc1ccccc1C1(C#N)CCOCC1
2	/	N#CC(Cc1ccccc1)Sc1nnc(-c2cccs2)n1Cc1ccccc1 (stereo unspecified)
8	-0.6	CCc1c(C#N)c(SCC(=O)c2ccc3c(c2)OCO3)nc2c1C(=O)CC(C)(C)C2

# (next part)
Sa helicase inh	MgrA DNA FP	SMILES
9	2.4	Nc1nncn1C(=O)CCCN1C(=O)c2ccccc2C1=O
/	-1.1	CCOc1cc(C=C2C(=O)N(C)C(=O)N(C)C2=O)ccc1OCCBr
/	-0.9	Cc1cccc(NC(=O)NC(=O)c2ccc(C(C)(C)C)s2)n1
-9	/	COc1ccccc1N(C)S(=O)(=O)c1ccc(C(=O)OCC(=O)N2CCC2)cc1
5	/	O=C(NCc1ccco1)c1ccc2c(c1)S(=O)(=O)N=C1CCCCCN12
/	-1.6	O=C(O)CSCC(=O)N1CCC(n2cccc2)CC1
/	-0.3	O=C(O)c1ccccc1C(=O)c1ccc(Sc2ccc(Cl)cc2)c([N+](=O)[O-])c1
-6	-2.1	Nc1nc(SC23CC4CC(CC(C4)C2)C3)ns1
-6	/	CC1CC(C)CN(C(=O)CNC(=O)c2ccc(F)cc2)C1 (stereo unspecified)
2	-0.6	Nc1nonc1-c1nc2ccccc2n1Cc1ccc(F)cc1Cl
16	/	COc1ccccc1CNC(=O)CN(C)S(=O)(=O)c1cccc2cccnc12
14	/	O=C(/C=C/c1c(Cl)nc2sccn12)NCc1ccc2c(c1)OCO2
6	2.6	CCN1CCN(C(=O)N(CC)CC)CC1
/	0.3	C/C(=C\c1ccccc1[N+](=O)[O-])c1cc2ccccc2c2ccccc12
/	-1.5	O=S(=O)(c1cc(Cl)ccc1Cl)n1ccc(-c2ccc(Br)s2)n1
/	-2.9	O=C(Nc1ccc(Br)c(C(F)(F)F)c1)c1ccc(CN2C(=O)c3ccccc3C2=O)o1
3	1.9	O=C(COc1ccc(S(=O)(=O)N2CCCc3ccccc32)cc1)NCC1CCCO1 (stereo unspecified)
/	-0.9	O=C(Nc1ccccc1SCC(O)CSc1cccs1)c1ccc(Cl)cc1 (stereo unspecified)
2	/	Cc1ccc(-c2ccc(SCC#N)nn2)c(C)c1
/	33	COC(=O)/C(C#N)=C(\C#N)c1ccc(Br)o1
21	/	CCSc1nnc(CSc2ncccn2)n1CCc1ccccc1
9	/	COc1ccc(/C=C/C(=O)ONC2=NCCCCC2)cc1OC
4	/	CCCN1CCN(CCNS(=O)(=O)c2ccc(-c3cc(C(F)(F)F)no3)s2)CC1
/	-2.6	CC1=C(C)C(=O)N(CCC(=O)O)C1=O
4	-2.5	CC(C)NC(=S)N1CCC(Cc2ccccc2)CC1
/	-2.2	c1ccc(-c2cc3c(N4CCOCC4)ncnc3s2)cc1
-14	/	Cc1ccc(CNC(=O)c2ccccn2)n1C
16	-4.5	Cc1ccc(NCC(O)C(O)C(O)CO)cc1C (stereo unspecified)
/	-0.5	CS(=O)(=O)c1sc(NC(=O)Nc2ccc(Cl)cc2)c2c1C=CCC2
6	-0.7	CCOc1ccc(NC(=O)N(CCCN2CCOCC2)Cc2cccnc2)cc1
0	/	O=C(Cn1cccc1)NCc1cccs1
13	0.3	CCOC(=O)c1ccc2nc(C(F)(F)F)nc(NCCCc3ccccc3)c2c1
1	3.4	O=C1CC(C(=O)Nc2ccccc2)C2=C(CC(c3ccco3)CC2=O)N1 (stereo unspecified)
1	-1.4	C/C(=C/C(=O)C1CC1)C1CC1
-11	0.6	COc1nc(C)nc2sc3c(c12)CCCC3
11	/	COc1ccc(Nc2cc(C(=O)N3CCCCC3)c3ccccc3n2)cc1

# Reprinted from the part before: 2 entries; new compounds follow.
Sa helicase inh	MgrA DNA FP	SMILES
-11	0.6	COc1nc(C)nc2sc3c(c12)CCCC3
11	/	COc1ccc(Nc2cc(C(=O)N3CCCCC3)c3ccccc3n2)cc1
-7	/	CCN(CC(=O)Nc1ccccc1OC)C(=O)c1ccco1
-28	/	Cc1onc(-c2ccccc2)c1C(=O)Nc1ccc(N)cc1
-8	/	CCCn1c(SCC(=O)N=c2sc3ccccc3n2C)nc2ccccc21
11	/	O=C1N=C(N2CCCC2)S/C1=C\c1cn[nH]c1-c1ccccc1
-5	0.0	CCCC(C)C(=O)NCc1ccccc1OC (stereo unspecified)
19	/	CC1=C(C(N)=O)C(c2ccccc2)n2nc(SCc3ccccc3)nc2N1 (stereo unspecified)
15	/	CCOC(=O)CSc1nc(C)cc(Oc2ccc(=O)n(C)n2)n1
/	-3.3	CS(=O)(=O)c1csc(C(=O)O)c1Cl
-1	0.2	Cc1cccc(NC(=O)C2=Cc3sc(C)c(C)c3CS2)c1C
/	-1.1	O=C(N/N=C/c1cccs1)c1ccccc1
30	/	O=S(=O)(Nc1ccccc1Br)c1cccs1
-8	/	CC1(C)Cc2cccc(OCC(=O)OCC(=O)Nc3ccc4c(c3)OCO4)c2O1
-18	2.1	COc1ccc(/C=C/C(=O)OCC(=O)NC2CCCC(C)C2C)cc1 (stereo unspecified)
11	/	CCCn1c(N)c(C(=O)CN(C)Cc2ccccc2)c(=O)[nH]c1=O
/	-0.6	NNC(=O)Cc1csc2nc(-c3ccccc3)nn12
-7	/	CC1(C)C2CC=C(/C=N/NC(=O)c3ccc4c(c3)OCO4)C1C2 (stereo unspecified)
5	-0.9	Cc1nnc(SCCC(=O)Nc2cccc(-c3nc4ccccc4s3)c2)s1
-15	/	CN(C)c1ccc(CN)cc1
-5	/	CC(Oc1ccccc1)C(=O)OCC(=O)N1CCC(c2ccccc2)=N1 (stereo unspecified)
-7	/	O=S(=O)(c1ccc(C2=NNC(=NC3CC3)SC2)cc1)N1CCCCC1
-11	/	O=C(c1ccccc1)N1CCCCC(Sc2nnc3ccccn23)C1=O (stereo unspecified)
-1	/	CCSc1nc(=O)[nH]c2c1CCCC2
22	/	COc1ccccc1Nc1cnnc2c(Cl)cccc12
15	/	Oc1ccc(Nc2ccccc2)cc1
9	1.2	O=C(O)CC(NCc1ccccc1)c1ccccc1 (stereo unspecified)
5	-0.5	Cc1ccc(S(=O)(=O)CC(=O)Nc2ccc(-c3nc4ccc(C)cc4s3)cc2)cc1
11	7.0	CC(=O)N1N=C(c2cccs2)CC1c1c(C)coc1C (stereo unspecified)
-13	/	CN(CCO)c1ncnc2sccc12
-28	/	CN(C)c1nc(C=C(C#N)C#N)c(Cl)n1-c1ccc(F)cc1
4	-1.2	COc1ccc(NC(=O)c2ccco2)cc1NC(=O)c1cccc(F)c1
3	-1.0	COC(=O)c1cc2c(Cl)nc3ccc(C)cc3c2s1
3	-2.6	CC(C)(C)N1CC(C(=O)Nc2ccc(S(=O)(=O)N3CCCCC3)cc2)CC1=O (stereo unspecified)
3	3.7	CCCCS(=O)Cc1ccccc1 (stereo unspecified)
/	0.9	O=C(NCc1ccc(S(=O)(=O)N2C=CC(C(F)(F)F)=NCC2)s1)c1ccccc1
17	/	CCCN1C(=O)/C(=N\OCC(=O)NC23CC4CC(CC(C4)C2)C3)c2ccccc21

# Looked up by compound from the list above:
Sa helicase inh	MgrA DNA FP	SMILES
-28	/	CN(C)c1nc(C=C(C#N)C#N)c(Cl)n1-c1ccc(F)cc1
5	-0.5	Cc1ccc(S(=O)(=O)CC(=O)Nc2ccc(-c3nc4ccc(C)cc4s3)cc2)cc1
9	1.2	O=C(O)CC(NCc1ccccc1)c1ccccc1 (stereo unspecified)
17	/	CCCN1C(=O)/C(=N\OCC(=O)NC23CC4CC(CC(C4)C2)C3)c2ccccc21
3	-2.6	CC(C)(C)N1CC(C(=O)Nc2ccc(S(=O)(=O)N3CCCCC3)cc2)CC1=O (stereo unspecified)
/	0.9	O=C(NCc1ccc(S(=O)(=O)N2C=CC(C(F)(F)F)=NCC2)s1)c1ccccc1
11	7.0	CC(=O)N1N=C(c2cccs2)CC1c1c(C)coc1C (stereo unspecified)

# These rows are one share of the data. The share of hits here may be higher or lower than overall.
